# Assay outcomes from PubChem BioAssay.
# VACV mCherry inh: inhibitors of vaccinia virus infection (mCherry reporter signal) | Vaccinia virus mCherry reporter infection, fluorescence; about a quarter of the inactives have no number | Potency, µM (doses to about 36.5 µM), for the others: at the highest dose activity change, negative = inhibition, actives largely listed as inhibitors | 310,000 compounds, 0.63% hits; active = well fitted inhibition curve with a large enough effect; inconclusive = small, poorly fitted or top-dose-only effect; inactive = no such curve, though single readings can be large or run the other way; tested in A549 cells; also: nearly all actives have a fitted effect of over 35% in size; inactives centre near -10
# Vaccinia Venus: vaccinia inhibition (Venus reporter); Vaccinia virus Venus reporter expression, fluorescence; Potency, µM (highest dose often 36.5 µM), for the others: at the highest dose activity change, negative = inhibition, hits mostly inhibitors; 330,000 compounds, 0.46% hits; AID 720580; active means well fitted inhibition curve with a large enough effect; inconclusive means small, poorly fitted or top-dose-only effect; inactive means no such curve, though single readings can be large or run the other way; tested in A549 cells; also: nearly all actives have a fitted effect of over 30% in size; inactives centre near -10
# Numbers without * were called inactive; i = inactive; ? = inconclusive; · = not tested or not shown; & = joins results of further samples. % is scaled to controls: 0 for no effect and ±100 for the full control effect; potency is read from the fitted curve at half-maximal effect.
SMILES	Vaccinia Venus	VACV mCherry inh
COCCOc1ccc(C(F)(F)F)cc1NC(=O)CN1C(=O)NC2(CCCc3ccccc32)C1=O (stereo not drawn)	?	-3%
COc1cccc(CN2CCC(C(=O)N3CCN(c4ccccc4F)CC3)CC2)c1OC	-9%	-17%
COc1ccc(Cl)cc1NC(=O)Cn1nc(-c2ccc(C)cc2)n(C)c1=S	?	-20%
CC1C(=O)N(c2ccc(S(=O)(=O)N(C)C)cc2)C1(/C=C/c1ccccc1)C(=O)NC1CCCC1 (stereo not drawn)	-14%	-1%
Cc1ccsc1CN(C)CC(=O)Nc1ccc([N+](=O)[O-])cc1Cl	-9%	-30%
CONc1nc2nonc2nc1NOC	-1%	i
Nc1ccc2c(c1)Cc1ccccc1-2	-11%	i
CC1(C)CN=C(NC2CCCCC2)S1	-7%	i
COC(=O)c1cccc(C(=O)Nc2cnc3ccccc3c2)n1	-36%	·
O=C(CSC1=NS(=O)(=O)c2ccccc2N1)Nc1ccc(F)cc1	-7%	i
O=C(OCC(=O)N1CCN(Cc2ccccc2)CC1)c1ccc(Cl)cc1	-8%	-25%
COc1ccc(/C=N/NC(=O)c2ccc3c(c2)NC(=O)C(C)(C)O3)cc1OC	1%	-13%
CCS(=O)(=O)c1nc(S(=O)(=O)c2ccc(C)cc2)c(NCc2ccccn2)s1	-4%	i
COc1ccc(C(=O)Nc2ccc(NC(=O)c3cccs3)cc2)cc1[N+](=O)[O-]	-7%	5%
COc1ccccc1NC(=O)CCSc1nnc(-c2ccncc2)o1	?	?
O=C1CC(c2cccnc2)c2cc3c(cc2N1)OCCO3 (stereo not drawn)	-17%	i
Cc1nnc(NC(=O)C(C)Sc2nnc(-c3ccco3)n2C)s1 (stereo not drawn)	5%	-9%
Cc1cccc(C(C#N)c2ccc(Cl)nn2)c1 (stereo not drawn)	2%	-41%
CC(C)OCCCn1c(=O)c2ccccc2n2c(CCC(=O)NC3CCN(Cc4ccccc4)CC3)nnc12	-21%	-4%
Cc1cc(C)n2nc(SCC(=O)N3CC(C)CC(C)C3)nc2n1 (stereo not drawn)	-10%	-17%
O=C(COC(=O)c1c2c(nc3ccccc13)CCCCC2)c1ccc(Cl)s1	-14%	-17%
CN(C(=O)c1ccncc1)c1nnc(-c2cnccn2)s1	-9%	-21%
CC(=O)NCCNC(=O)CNC(=O)c1ccc(Cl)cc1	-9%	-11%
CC[C@]1(C(=O)OC)[C@H]2C(=O)N(C)C(=O)[C@H]2[C@H]2CN=C(SCc3ccc(OC)cc3)N21	?	-20%
Cc1ccc(C(=O)Nc2nnc(S(=O)(=O)Nc3ccccc3C)s2)cc1C	-29%	i
COc1ccc(/C=N/c2oc(-c3ccccc3)cc2C#N)cc1	1%	·
CC(C)=NNc1nc(-c2ccccc2)c(C)s1	2%	?
CCN(CC)CCC=C(c1cccs1)c1cccs1	-21%	-22%
COc1ccc(OC)c(NC(=O)Cn2c(=O)cc(-c3ccccc3)c3c(C)nn(C)c32)c1	-24%	?
CC(=O)Oc1ccc(C2C3=C(CC(C)(C)CC3=O)Nc3cc4c(cc32)OCCO4)cc1 (stereo not drawn)	-19%	?
C[C@@H]1CN([C@H](C)CO)C(=O)CCCn2nncc2CO[C@@H]1CN(C)S(=O)(=O)c1cn(C)cn1	-11%	-11%
CCn1c(-c2cc(-c3ccccc3)sc2N)n[nH]c1=S	-14%	-22%
COC(=O)c1sccc1S(=O)(=O)N(CC(=O)NCc1ccc(C)cc1)c1ccc(C)cc1	14%	-5%
NS(=O)(=O)c1ccc(N2N=C(c3ccccc3)CC2c2ccccc2Br)cc1 (stereo not drawn)	-19%	?
CCOc1ccc(Nc2nc(Cc3nnc(SCC(=O)NC4CCCC4)n3C)cs2)cc1	-16%	i
CCN(CC)S(=O)(=O)c1ccc(N2CCCCC2)c(NC(=O)/C(C#N)=C/c2ccc(OC)cc2)c1	-4%	-16%
Cc1ccc(-c2nc3ccccc3c(=O)n2Cc2ccccc2)cc1	-3%	-10%
COc1ccc(OCC(=O)Nc2ccc(Cl)c(-c3nc4ncccc4o3)c2)cc1	-13%	-15%
COc1cc(-c2csc(N3CCOCC3)n2)cc(OC)c1OC	-9%	·
O=C(NCc1cccs1)C1CC(=O)N(c2ccc(Cl)cc2)C1 (stereo not drawn)	0%	-7%
COCCNC(=O)CSc1ccccc1C(=O)NC1CCCc2ccccc21 (stereo not drawn)	-6%	i
Cc1ccc(S(=O)(=O)N(C)CC(=O)OCC(=O)NC(=O)NC(C)C)cc1	-11%	i
C[C@]12N[C@H](Cc3ccccc31)c1ccccc12	-9%&-12%	-17%
O=C(COc1ccc(NC(=O)c2cccs2)cc1)c1ccc(F)cc1	-20%	-6%
CC(C)CN(C(=O)COc1ccc(Br)cc1C=O)C1CCS(=O)(=O)C1 (stereo not drawn)	-2%	-1%
CC1=C(C(=O)N(C(C)C)C(C)C)CC(CC(=O)NCc2cccs2)C(=O)N1CCC1=CCCCC1 (stereo not drawn)	-22%	7%
O=C(NCCCn1ccnc1)C(=O)NCC1OCCCN1S(=O)(=O)c1ccc(Cl)cc1 (stereo not drawn)	-9%	-13%
CN(NC(=S)Nc1ccc(OC(F)F)cc1)C(=S)Nc1ccc(OC(F)F)cc1	-2%	?
O=c1cnn([C@@H]2O[C@H](CO)[C@@H](O)[C@H]2O)c(=O)[nH]1	0%	?
Cc1ccccc1CNC(=O)CCCn1c(=O)c2cccn2c2cccnc21	-21%	-7%
CCc1ccc(C(=O)Cn2ncc(Cl)c(Cl)c2=O)cc1	4%	·
c1ccc(CN2CCC(N3CCN(Cc4ccc5c(c4)OCO5)CC3)CC2)cc1	5%	-22%
Cc1ccc(SCC(=O)N(Cc2nc(-c3ccccc3)no2)C(C)C)cc1	-4%	-2%
Cc1cc(Cl)ccc1NC(=O)Cn1cncn1	-20%	i
Cc1ccc(N(C)S(=O)(=O)c2ccc(-c3cnc(C4CC4)o3)cc2)cc1	-22%	?
CCC(=O)Nc1cc(NC(=O)CSc2nnc(C(C)C)n2CC)ccc1C	-26%	-29%

# Full records as entered above.
# COC(=O)c1cccc(C(=O)Nc2cnc3ccccc3c2)n1 is listed with Vaccinia Venus = -36%; VACV mCherry inh = ·
# NS(=O)(=O)c1ccc(N2N=C(c3ccccc3)CC2c2ccccc2Br)cc1 (stereo not drawn) is listed with Vaccinia Venus = -19%; VACV mCherry inh = ?

# (continued)
SMILES	Vaccinia Venus	VACV mCherry inh
CCSc1ccccc1C(=O)N=C1NC(=O)CC2C(=O)NCCN12 (stereo not drawn)	-4%	i
COc1ccc(/C=C(\C)c2nc(C)c(-c3ccccc3)c(=O)[nH]2)cc1	-1%	i
O=C(Nc1ccccc1)Nc1nnc(CSCc2ccccc2Cl)s1	?	?
Cc1cc(NC(=S)NC(=O)c2ccco2)c2ccccc2n1	-10%	i
CCOC(=O)CCc1c(C)n(CC)c2ncnn2c1=O	-20%	-14%
CC(=O)c1ccc(NC(=O)C2(S(=O)(=O)c3ccccc3)CC2)cc1	-2%	-9%
O=c1cc(N2CCN(c3ccc(F)cc3)CC2)[nH]c(=O)n1Cc1ccc(F)cc1	-14%	-27%
CC(=O)Nc1cnc(-c2cc(C)c(O)c(C)c2)cn1	-5%	i
Cc1cc(C(=O)Nc2ccc(F)c(Cl)c2)on1	-18%	-3%
CN(Cc1ccccc1)C(=O)c1ccc(NC(=O)Cc2ccc(NC(=O)C3CCN(C(=O)C4CCC4)CC3)cc2)cc1	-11%	i
C=CCn1c(SCc2ccc(F)cc2)nc2c1c(=O)[nH]c(=O)n2C	-9%	i
O=C(Nc1ccc(F)cc1F)c1sccc1SCc1cccc(C(F)(F)F)c1	-7%	-14%
CC(NC(=O)NC1CCCCC1)C(c1cccs1)N1CCOCC1 (stereo not drawn)	-2%	i
NC1=NC2(CCCC2)N=C(Nc2ccccc2)N1	1%	-2%
O=C(CNC(=O)c1ccccc1)Sc1ccccc1	3%	-20%
CCOc1ncccc1C(=O)NCCCSc1ccccc1	-5%	-8%
COc1ccc(S(=O)(=O)N2CCN(Cc3ccc(Cl)cc3)CC2)cc1	-17%	-17%
COc1cccc(N2CCN(c3ccc(N4C(=O)CCC4=O)cc3[N+](=O)[O-])CC2)c1	3%	-13%
CC1CCc2sc3c(c2C1)c1ncnn1c(=O)n3CC(=O)c1ccc(Br)cc1 (stereo not drawn)	-20%	·
OCCC1CN(Cc2cnc(-c3ccccc3)s2)CCN1CCc1ccccc1 (stereo not drawn)	-18%	i
Cc1cccc(NC(=O)CN2CCC(NC(=O)C3CCCCC3)CC2)c1C	-1%	i
O=C(NS(=O)(=O)c1ccc2c(c1)OCCO2)c1ccccc1	-8%	i
COc1ccc2nc(NC(=O)CSC(C)C(=O)Nc3cc(C)on3)sc2c1 (stereo not drawn)	-1%	-28%
CCOC(=O)c1c(C)c(-c2ccccc2)n(CC(=O)NCc2ccccc2)c1C	-19%	i
Cc1cccc(/C=C(\c2nc3ccccc3[nH]2)S(=O)(=O)c2ccccc2)c1	?	?
CCOc1ccc(N=C2SCC(=O)N2CC)cc1	-14%	-13%
CCOC(=O)C1CCN(c2c(Nc3ccc4c(c3)OCCO4)c(=O)c2=O)CC1	-20%	?
O=C(Nc1ccccc1Cl)c1ccc(-c2ccccn2)s1	-20%	-16%
C[C@H](CO)N1C[C@H](C)[C@@H](CN(C)S(=O)(=O)c2ccccc2)Oc2ccc(NS(=O)(=O)c3cccs3)cc2C1=O	-14%	-1%
COc1ccc(CNC(=O)C2(C)Cc3c(-c4cccc(C(N)=O)c4)ccnc3O2)cc1OC (stereo not drawn)	-17%	-2%
CN1C(=O)c2ccccc2Sc2ccc(NC(=O)N3CCCC3)cc21	-11%	·
CCOc1ccc(CCNC(=O)c2cnc3sc(N4CCC(C)CC4)nn3c2=O)cc1	-16%	-14%
COC(=O)C1=C(c2ccc(F)cc2OCc2ccccc2)C[C@@H]2CC[C@H]1N2C(=O)NCc1ccccc1OC	?	i
Cc1cc(N2CCN(c3cccc(C)c3C)CC2)n2nc(C)c(-c3ccc(Cl)cc3)c2n1	-8%	2%
COc1cc(C(=O)Nc2ccc(O)cc2)ccc1OC(C)=O	-2%	-6%
O=C(CSc1nc(Nc2ccccc2)nc(N2CCOCC2)n1)Nc1ccccc1Cl	-5%	-9%
Cc1ccccc1OCC(=O)Nc1ccc(C(=O)OCc2cc(=O)n3c(C)csc3n2)cc1	0%	i
COc1cc(/C=N/NC(=O)COc2ccccc2[N+](=O)[O-])ccc1OC(=O)c1ccco1	-4%	-18%
CCOc1ccccc1NS(=O)(=O)c1cc2[nH]c(=O)c(=O)[nH]c2cc1C	-5%	-6%
CN=C1SC(CC(=O)Nc2ccc(C(=O)O)cc2)C(=O)N1C (stereo not drawn)	-4%	i

# Looked up one by one from the list above:
SMILES	Vaccinia Venus	VACV mCherry inh
O=C(CSc1nc(Nc2ccccc2)nc(N2CCOCC2)n1)Nc1ccccc1Cl	-5%	-9%
CCOc1ccccc1NS(=O)(=O)c1cc2[nH]c(=O)c(=O)[nH]c2cc1C	-5%	-6%

# The listing continues:
SMILES	Vaccinia Venus	VACV mCherry inh
COc1ccccc1-c1ccc2c(c1)C(C)(Cc1ccccc1C#N)C(=O)N2 (stereo not drawn)	-5%	i
CCOc1ncnc2c1[nH]c1ccccc12	-26%	?
CCOC(=O)Cn1c(=O)n(C2CCCCC2)c2nc(-c3ccc(OC)cc3)nc(C(N)=O)c21	2%	-5%
CCN(CC)C(=O)[C@H]1CC(CC(=O)NC/C=C(\C)CCC=C(C)C)C(=O)N2CCc3c([nH]c4ccc(OC)cc34)[C@]12C (stereo partly drawn)	?	13µM*
Cc1cc(=O)oc2ccc(OCC(=O)N(Cc3ccc(F)cc3)Cc3ccco3)cc12	-22%	-15%
O=C(NCc1ccc(-c2csnn2)cc1)c1cccs1	-17%	i
Cc1cc(C)nc(SCC(=O)Nc2ccc(S(=O)(=O)Nc3ncccn3)cc2)n1	-12%	-10%
COc1ccc(/C(N)=N/OC(=O)Cc2ccc(C)cc2)cc1	-12%	i
COc1ccc(NC(=O)C(C)n2nc(-c3cc(C)ccc3C)c3c(c2=O)CCCC3)cc1 (stereo not drawn)	-10%	-9%
COc1cccc(Oc2ccc(C(F)(F)F)cc2NC(=O)CCc2nc3ccccc3c(=O)[nH]2)c1	-27%	?
COc1ccc(N(C(=O)c2ccco2)C(C(=O)NC2CCCC2)c2cccs2)cc1OC (stereo not drawn)	-3%	-2%
Cc1cccc(NC(=O)c2ccccc2NC(=O)C2CCCCC2)c1C	6%	-14%
CC(/C=N/NC(=O)c1cccnc1)=C\c1ccccc1	-3%	i

# Sorted by count of non-hydrogen atoms (descending): four of the compounds above.
SMILES	Vaccinia Venus	VACV mCherry inh
COc1cccc(Oc2ccc(C(F)(F)F)cc2NC(=O)CCc2nc3ccccc3c(=O)[nH]2)c1	-27%	?
Cc1cc(C)nc(SCC(=O)Nc2ccc(S(=O)(=O)Nc3ncccn3)cc2)n1	-12%	-10%
Cc1cccc(NC(=O)c2ccccc2NC(=O)C2CCCCC2)c1C	6%	-14%
COc1ccc(/C(N)=N/OC(=O)Cc2ccc(C)cc2)cc1	-12%	i
